# Calb biofilm kill: mixtures killing C. albicans biofilm; C. albicans biofilm persisters + clotrimazole, fluorescence viability; primary screen in compound mixtures of four per well; inhibition, % at 7.6 µM; 120,000 tested, 0.02% active; AID 1242;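 active means inhibition above 30.3% in the primary screen of four-compound pools, then above 30% when the compound was retested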;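 further: compounds exposed to preformed 24 h biofilms for 48 h; the number belongs to the whole pool; some results filed as inactive read as strong as hits; inactives centre near 12; 0% = biofilm with clotrimazole alone and 100% = kill control; retested singly at about 60 µM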
#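 Assay system: C. albicans biofilms / Medium: RPMI/MOPS medium, pH 7.0 / Schedule: biofilm formation 24 h, compound exposure 48 h, 37 °C / Measured by: Alamar Blue fluorescence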
# Numbers without * were called inactive.
entry	smiles	Calb biofilm kill
1	CCc1cccc(C)c1N1C(=O)CC(C)(C)CC1=O	29
2	Cc1ccc2cc(CCNC(=O)c3cccc([N+](=O)[O-])c3)c(=O)[nH]c2c1	-6
3	Cc1cccc2c(N=O)c(O)[nH]c12	27
4	CSc1nc2c(c(=O)[nH]1)C(c1cccc(Cl)c1)CC(=O)N2 (stereo unspecified)	2
5	CN1CCc2c(OCc3ccc(F)cc3)cccc2C1=O	6
6	CCOP(=O)(/C(C#N)=C(/O)c1ccccc1)c1ccccc1 (stereo unspecified)	8
7	Cc1onc(-c2c(Cl)cccc2Cl)c1C(=O)ONC(=O)c1ccccc1	17
8	CC(=O)Nc1ccc(NS(=O)(=O)c2cc(Cl)ccc2Cl)cc1	21
9	CC(C)Oc1ccc(N2CC(C(=O)NC3=NCCS3)CC2=O)cc1 (stereo unspecified)	28
10	Cc1cc2ncn(C(=O)N3CCCCCC3)c2cc1C	5
11	O=C(CC1(O)C(=O)Nc2ccccc21)c1cccc(-n2cccc2)c1 (stereo unspecified)	-2
12	COc1ccc(Cc2nc(=S)[nH][nH]2)cc1Br	13
13	CCC(=O)Nc1ccc(S(=O)(=O)Nc2ccccn2)cc1	-8
14	COCCn1c(C)cc(C(=O)COC(=O)CNC(=O)c2ccccc2)c1C	-1
15	COC(=O)c1sc(S(=O)(=O)Nc2ccc(C)cc2)c(C(=O)OC)c1C	14
16	COc1ccccc1OCC(=O)NNC(=O)C(=O)N1CCCC1	17
17	CCCCn1c(N)c(N(CCC(C)C)C(=O)COC(=O)c2ccccc2)c(=O)[nH]c1=O	9
18	O=C(Nc1ccccc1OC(F)F)c1oc2ccccc2c1COc1ccccc1	13
19	CC(C)CCNC(=O)/C=C/c1ccc(Br)cc1	13
20	Fc1ccc2[nH]c3c(c2c1)CN(C(=S)NCc1ccccc1)CC3	0
21	N#Cc1c(NC(=O)CSc2nc(-c3ccccc3)cc(C(F)(F)F)n2)sc2c1CCC2	23
22	CCCCC(CC)C(=O)Oc1ccc(O)c(C(C)(C)C)c1 (stereo unspecified)	15
23	CC12CC3(C)CC(C)(C1)CC(C(=O)NC(=S)NC(C)(C)C)(C2)C3	8
24	O=C(Nc1ccc(N2CCOCC2)c(Cl)c1)c1ccc([N+](=O)[O-])o1	9
25	Cc1ccc(C(=O)N/N=C\c2sccc2C)cn1	18
26	Cc1sc2cc3c(c(C(=O)c4ccccc4)[n+]2c1C)-c1cccc2cccc-3c12	16
27	COC(=O)c1ccccc1NC(=O)CSc1nc(O)c(-c2ccccc2)c(=O)[nH]1	15
28	O=C(Nc1ccc2[nH]c(=O)[nH]c2c1)c1ccc(Cl)c(Cl)c1	20
29	Cc1ccc2sc(-c3ccc(NC(=O)/C=C\C(=O)O)cc3)nc2c1	20
30	COc1cc(=O)n(C)c2c(OCC3OC(C)(C)OC3(C)C)cccc12 (stereo unspecified)	7
31	O=C(CSc1nnc(CNC(=O)C23CC4CC(CC(C4)C2)C3)n1-c1ccc(F)cc1)Nc1ccc(F)cc1	9
32	Cc1ccc(-c2nnc(Nc3ccc(C(=O)N(C)C)cc3)c3ccccc23)cc1S(=O)(=O)NC(C)(C)CO	15
33	O=C(Nc1ccc(-c2nc3cc(Cl)ccc3c(=O)o2)cc1)c1ccco1	4
34	O=C(COc1ccc(Cl)cc1Cl)NN=C1c2ccccc2-c2ccccc21	24
35	CC(C)CNC(=O)C(=O)NNC(=O)c1ccco1	17
36	Cc1cc(NC(=O)c2ccccc2)nc2c1c(=O)oc1ccccc12	4
37	CCc1nnc(NS(=O)(=O)c2ccc(NC(=O)c3ccccc3)cc2)s1	7
38	CCOc1ccc(C(O)Cc2nc3ccccc3n2C)cc1 (stereo unspecified)	4
39	Cc1nonc1C1CCCN1C(=O)c1cc(COc2ccc(F)cc2F)on1 (stereo unspecified)	-2
40	O=C(O)CSCC(=O)NCc1ccc(Cl)cc1	8

# Laid out differently: results already given
37	CCc1nnc(NS(=O)(=O)c2ccc(NC(=O)c3ccccc3)cc2)s1
  Calb biofilm kill: 7
38	CCOc1ccc(C(O)Cc2nc3ccccc3n2C)cc1 (stereo unspecified)
  Calb biofilm kill: 4
39	Cc1nonc1C1CCCN1C(=O)c1cc(COc2ccc(F)cc2F)on1 (stereo unspecified)
  Calb biofilm kill: -2

# (listing goes on)
entry	smiles	Calb biofilm kill
41	Cc1c(N)cc(C(=O)N2CCOCC2)cc1[N+](=O)[O-]	4
42	Cc1ccc(NN2C(=O)C=C(c3ccccc3)C2=O)cc1	24
43	CC1(C(=O)OCC(=O)Nc2cccc(S(=O)(=O)NC3=NCCCCC3)c2)CC1(Cl)Cl (stereo unspecified)	15
44	CSC1=NC(=O)/C(=C/c2ccc(SC)cc2)S1	16
45	COc1ccc(-c2nn(CCC(=O)O)cc2/C=N/NC(N)=S)cc1	11
46	CCOc1cc(/C=C2\C(=O)N(Cc3ccco3)C(C)=C2C(=O)OC)ccc1O	6
47	Cc1cccc2cc(CN(Cc3cccnc3)C(=O)c3cccs3)c3nnnn3c12	13
48	Cc1cccc(Nc2nc(-c3cccs3)cs2)n1	15
49	CN1Cc2c(N3CCOCC3)nc3sc(C#N)c(N)c3c2CC1(C)C	23
50	Cc1ccc(C)c(S(=O)(=O)N2CCCOC2CNC(=O)C(=O)NCc2ccco2)c1 (stereo unspecified)	11
51	COc1cc2c(cc1OC)CN(c1nc(CN3CCCC3)nc3sc(C)c(C)c13)CC2	12
52	CCN(CC)S(=O)(=O)c1ccc(N2CCOCC2)c(NC(=O)CCOc2ccccc2)c1	13
53	CSCCNC(=O)c1cccc(Cl)c1	-7
54	Cc1cc(C)c(S(=O)(=O)N2CCOC2CNC(=O)C(=O)NCc2cccnc2)c(C)c1 (stereo unspecified)	11
55	O=S(=O)(c1cnc[nH]1)N1CCN(c2ccc(F)cc2)CC1	0
56	COc1ccc(C(CC(=O)c2ccc(C)cc2)Nc2ccc([N+](=O)[O-])cc2)cc1 (stereo unspecified)	6
57	COc1ccc(/C(N)=N/OC(=O)C2CCC(=O)N2S(=O)(=O)c2ccc(C)cc2)cc1OC (stereo unspecified)	11
58	CC(C)Oc1cccc(C(=O)NC(=S)Nc2cccc(NC(=O)c3ccccc3Cl)c2)c1	19
59	Cc1ccc(C(=O)Nc2cccc(C(F)(F)F)c2)cc1NC(=O)c1nccn1C	14
60	O=C(Oc1coc(CSc2ncccn2)cc1=O)c1cccs1	4
61	Cc1ccc(OC(=O)c2cccnc2)cc1	12
62	CCCn1c(SCC(=O)Nc2cccc(C)n2)nc2c1c(=O)n(C)c(=O)n2C	13
63	COc1ccc(N(CC(=O)NCc2ccco2)S(=O)(=O)c2ccccc2)cc1	5
64	COc1ccc(-c2nn(-c3ccccc3)cc2C(=O)N/N=C/c2ccc([N+](=O)[O-])o2)cc1	11
65	Nc1cc(Cl)nnc1Cl	19
66	Cc1ccccc1Cn1cc(S(=O)(=O)CC(=O)N2CCCCC2)c2ccccc21	15
67	CCCn1nnnc1NC(=O)COc1ccc(Br)cc1	12
68	CC(C)CC1NC(=S)N(Cc2ccccc2)C1=O (stereo unspecified)	18
69	Cc1cccc(N2CCN(Cc3nc(-c4cccc(Cl)c4)oc3C)CC2)n1	-11
70	Cc1ccc(Nc2nc3ccccc3s2)c(C)c1	6
71	COc1cccc(N2CC(C(=O)Nc3nnc(SCc4cccnc4)s3)CC2=O)c1 (stereo unspecified)	6
72	O=c1[nH]c2ccc(S(=O)(=O)NCc3ccccc3)cc2[nH]1	14
73	O=C(Nc1ccc(F)cc1F)N1CCCN(CCOc2ccccc2)CC1	14
74	Cc1oc(-c2cccc(Cl)c2)nc1CSc1nc2c(c(=O)[nH]1)CCC2	17
75	S=c1[nH]nc(-c2ccc(Cl)cc2)n1/N=C/c1cccs1	21
76	Cc1nnc(NC(=O)c2ccccc2NC(=O)c2ccccc2)s1	12
77	CCN(C(=O)COC(=O)c1cc(-c2cccc3ccccc23)nc2ccccc12)C1CCS(=O)(=O)C1 (stereo unspecified)	20
78	Cc1cc(C)nc(Nc2ncc(O)n2-c2ccc(Br)cc2)n1	14
79	COC(=O)c1cc(=O)cc(C(=O)OC)o1	18
80	COc1cc(C(C)=O)ccc1OCCN1CCC(Cc2ccccc2)CC1	5
81	COc1ccc(NC(=O)CN(C)CC(=O)Nc2ccc(N3CCOCC3)cc2)c([N+](=O)[O-])c1	13
82	O=C(CSc1nnc(SCc2ccccc2)s1)N/N=C/C=C/c1ccco1	16
83	Cc1ccc2nc(-c3cccnc3)c(Nc3ccccc3C)n2c1	29
84	N/C(=N\OC(=O)c1cccc([N+](=O)[O-])c1)c1ccccn1	3
85	O=C(Cc1cccs1)NC1CCCC1	23
86	NC(=O)C1CCN(c2ccc(C(F)(F)F)cn2)CC1	14
87	COCCn1c(N)c(N(Cc2ccccc2)C(=O)C2CCCCC2)c(=O)[nH]c1=O	8
88	COc1ccc(N(C)C(=O)c2cc3c(s2)-c2ccccc2S(=O)(=O)C3)cc1	33
89	O=C(O)/C=C/C(=O)Nc1ccc(OC(F)(F)F)cc1Br	-2
90	COc1cccc(C(=O)c2c[nH]c(C(=O)NCc3cccnc3)c2)c1	15
91	CCN(CC1COc2ccccc2O1)C(=S)NCCCN(C)C (stereo unspecified)	8
92	CCc1cc(SC#N)cc(CC)c1NC(=O)CCl	3
93	COc1cc(NC(=O)COC(=O)Cc2ccc(-c3ccccc3)cc2)cc(OC)c1	7
94	COc1ccc(NC(=O)Cn2nnc(C(=O)NCCc3ccc(OC)c(OC)c3)c2N)c(OC)c1	16
95	CC(=O)n1cc([C@@H]2C=C(C(=O)N3CCOCC3)O[C@H](OCc3ccc(CO)cc3)C2)c2ccccc21	12
96	COC(=O)C1=C(C)Nc2c(c(=O)n(C)c(=O)n2C)C1c1cccnc1 (stereo unspecified)	14
97	COc1ccccc1/C=C(/C(=O)OCC(=O)Nc1ccc(N(C)C)cc1)c1ccccc1	12
98	NCCCC[C@@H]1NC(=O)[C@H](CCC(=O)O)NC(=O)c2cc([N+](=O)[O-])cc(I)c2SC[C@@H](C(=O)NCC(N)=O)NC1=O	9
99	CC1C(Br)C(=O)NC(=O)N1Cc1ccccc1 (stereo unspecified)	12
100	CN(C)C(=S)Nc1cccc(C(F)(F)F)c1	15

# (list continues)
entry	smiles	Calb biofilm kill
101	Fc1ccc2c(c1)C(c1cccnc1)=NNC(c1cccs1)=N2	11
102	O=c1c2ccccc2ncn1-c1ccccc1C(F)(F)F	23
103	C=CCNC(=O)/C(=C/c1cccc([N+](=O)[O-])c1)NC(=O)c1ccccc1	3
104	O=C(Nc1ncc(Cc2ccccc2Cl)s1)c1ccc(-c2cccc([N+](=O)[O-])c2)o1	11
105	CCOC(=O)C1(C(F)(F)F)N=C(C(F)(F)F)Nc2cc(C)c(C)cc21 (stereo unspecified)	14
106	CCOC(=O)N/N=C/c1cc(OC)c(O)c(OC)c1	15
107	CC(=O)Oc1ccc(/C=C2/CCc3ccccc3C2=O)cc1	15
108	CCN(CC)S(=O)(=O)c1cccc(NC(=O)COC(=O)/C=C/c2ccco2)c1	16
109	COCCCn1c(SCC(=O)Nc2ccc(NC(=O)c3ccco3)c(OC)c2)nc2ccccc2c1=O	-7
110	O=C(CN1CCCc2ccccc21)NC(=O)NCc1ccccc1	14
111	CCOc1ccccc1-c1nc2c(C(C)(C)C)nn(C)c2c(=O)[nH]1	18
112	COc1cc2c(cc1OC)C(c1cc3ccccc3oc1=O)=NC(C)(C)C2	7
113	Cc1cc(C(=O)Cn2cc(C(F)(F)F)ccc2=O)c(C)n1-c1ccccc1	13
114	CCc1nnc(NC(=O)Cc2cc(OC)c(OC)c(OC)c2)s1	-1
115	CC[N+]1(CC)CC2CCC(C)(C1)C2(C)C (stereo unspecified)	14
116	CCC1Oc2ccccc2N(CC(=O)NCc2cccs2)C1=O (stereo unspecified)	19
117	Cc1nonc1CN(C)C(=O)CC1C(=O)NCCN1Cc1c(F)cccc1Cl (stereo unspecified)	3
118	COc1cccc(NC(=O)Cn2c3ccccc3c3nc4n(c(=O)c32)CCS4)c1	15
119	Clc1cncc(Cl)c1N/N=C/c1ccncc1	9
120	C=CC1CN(CC(=O)OC)S(=O)(=O)c2ccccc21 (stereo unspecified)	11
121	CNc1nc(N/N=C/c2ccc([N+](=O)[O-])cc2)nc(Nc2ccccc2)n1	12
122	COc1ccc(OCc2nnc(NC(=O)Nc3ccc(F)cc3)s2)cc1	3
123	CCn1cc(C(=S)N2CCC(C(N)=O)CC2)c2ccccc21	7
124	CCOC(=O)C1=NN(C(=O)Cc2ccccc2)C(O)(C(C)(C)C)C1 (stereo unspecified)	25
125	O=C(CN1CCN(S(=O)(=O)c2ccc(Cl)cc2)CC1)Nc1ccc(N2CCOCC2)cc1	5
126	COCCNC(=O)Nc1ccc2nc(-c3ccco3)c(-c3ccco3)nc2c1	4
127	C/C(=N\NC(=O)CSc1nc2ccccc2[nH]1)c1ccncc1	16
128	O=c1[nH]c(CN2CCN(c3ncccn3)CC2)nc2c(Br)cc(Br)cc12	18
129	CC(=O)/C=C/n1c(=S)oc2ccccc21	14
130	CCC(=O)OCC(=O)Nc1ccc(OC)cc1[N+](=O)[O-]	0
131	CCOc1ccc(/C=C/C(=O)Nc2cccc(C(C)=O)c2)cc1	-10
132	Cc1ccc(O)c(-c2cc(-c3ccccc3[N+](=O)[O-])[nH]n2)c1	12
133	COc1cccc(C2(O)CCN(C(=O)C(C)C)CC2)c1	-10
134	CC(=O)c1cc(CN2C(=O)c3ccccc3C2=O)cs1	10

# Single values from the list:
# Reading of COCCNC(=O)Nc1ccc2nc(-c3ccco3)c(-c3ccco3)nc2c1 under Calb biofilm kill: 4
# Reading of CCOc1ccc(/C=C/C(=O)Nc2cccc(C(C)=O)c2)cc1 under Calb biofilm kill: -10
# Reading of O=c1[nH]c(CN2CCN(c3ncccn3)CC2)nc2c(Br)cc(Br)cc12 under Calb biofilm kill: 18
# Reading of CCn1cc(C(=S)N2CCC(C(N)=O)CC2)c2ccccc21 under Calb biofilm kill: 7

# Screening data deposited in PubChem BioAssay by PCMD.

# This is a subset, so the mix of outcomes need not match the whole.
